# KSHV LANA nucl: LANA-nucleosome interaction inhibition; 0.3% of 51,000 active; AID 720717; FITC-LANA1-23 / chicken nucleosome fluorescence polarization; hits give low values; z-score (no concentration beside the values);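 active = both repeat wells score below -2 in polarization z-score versus plate sample wells, excluding overly bright wells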;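 also: 100 nL library stock added to about 30 µL; numbers are from one replicate; some results filed as inactive read as strong as hits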
#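 System – purified chicken nucleosomes with FITC-labelled LANA N-terminal peptide (1-23) · Amount – 240 nM purified chicken nucleosomes (480 nM peptide binding sites), final · Also added – 50 nM FITC-LANA1-23 probe · Medium – TEN-BT buffer, pH 7.5 · Incubation – compound with peptide–nucleosome mix 10–45 min at room temperature · Detection – fluorescence polarization, ex 480 nm, em 535 nm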
# Ab BasE inh: blocks the Acinetobacter baumannii siderophore enzyme BasE. purified BasE, fluorescence polarization binding displacement. inhibition, % (no concentration beside the values). 0.1% of 84,000 active;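 active = both replicates above 25% with normal brightness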;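 also: 0% = negative plate control signal and 100% = positive plate control signal; stock transfer was 100 nL into about 30 µL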
# An asterisk follows results filed as active; · = not tested or not shown; & = joins results of further samples.
SMILES,KSHV LANA nucl,Ab BasE inh
CCOC(=O)NCc1cc(C(=O)O)ccc1O,0.19,-2.2
Cc1cccc(N2CN(Cc3ccco3)CNC2=S)c1,·,-0.7
COc1ccc(C(=O)c2cnc3cc4c(cc3c2N2CCCCC2)OCO4)cc1,-0.54,0.8
CN1C(=O)c2ccc(NC3=NS(=O)(=O)c4ccccc43)cc2C1=O,0.24,-0.3
CSc1ccccc1NC(=O)Nc1ccccc1,-0.52,-0.5
COC(=O)c1ccc(Cn2c(Cc3ccccc3)nc3ccccc32)o1,·,0.4
CC(=O)Oc1cn(C(C)C)c2nc(C)n3c(=O)c4ccccc4nc3c12,·,1.0
CC(=O)N1c2ccccc2NC(=O)C1CC(=O)Nc1ccccc1Cl (stereo not given),1.6,-1.2
CCC(Sc1nc2c(c(=O)[nH]1)CCC2)C(=O)Nc1ccccc1F (stereo not given),-0.17,-0.2
O=C(CCCN1C(=O)CSc2ncccc21)NC1CCCC1,-0.67,-0.3
COc1ccc(N2CCN(C(=O)Cn3c(Cl)nc4c3c(=O)n(C)c(=O)n4C)CC2)cc1,·,0.1
CCCN[C@H]1CCc2nc(N)sc2C1,0.12&0.17&0.75,·
COc1nc(N(C)C)nc(N(C#N)CN2C(=O)c3ccccc3S2(=O)=O)n1,-1.3,1.2
CCC(=O)Nc1ccccc1C(=O)N1CCCC1,-0.47,-2.4
CC1CCN(C(=O)c2cccc(-c3nnc(-c4ccccc4)o3)c2)CC1,-0.11,-0.2
Cc1cc(C)cc(C(=O)Nn2cnnc2)c1,2.2,-1.2
C=C(C)CC1C(=O)N(S(=O)(=O)c2ccc(Cl)cc2)N=C1C (stereo not given),0.098,3.7
Cc1ccc(S(=O)(=O)Nc2ccccc2-c2nnc(-c3ccc(Cl)cc3)o2)cc1,-0.52,-0.2
C/C=C/c1ccc(OC)c(OC(C)=O)c1,1.9,-2.4
O=C(Cc1ccccc1)c1c[nH]c(C(=O)NCCCn2ccnc2)c1,1.2,·
C=CCNC(=O)c1cc2c(=O)n3ccccc3nc2n(CCC)c1=N,·,3.0
CC(C)(C)c1cc2ncnc(NC3CCN(Cc4ccccc4)CC3)c2s1,·,-1.6
CCOC(=O)c1ccccc1NC1OC(=O)c2ccccc21 (stereo not given),0.3,3.8
COc1ccc(S(=O)(=O)N(CCC#N)CCN2CCOCC2)cc1Br,·,-3.0
COc1ccc2c(c1)c1c(c(=O)n(-c3ccc(C)cc3)c(=O)n1CC(=O)NCC1CCCO1)n2C (stereo not given),-0.23,-0.5

# Following part.
SMILES,KSHV LANA nucl,Ab BasE inh
CCN(CC(=O)NCc1cccs1)C(=O)c1cc2c(s1)CCCC2,·,0.2
CCOC(=O)CC(Sc1ccccc1N)c1cc(OC)c(OC)c(OC)c1 (stereo not given),·,-1.6
CSc1cccc(NC(=O)CC#N)c1,-0.55,-0.1
CCOC(=O)/C=C(\C)N1CCN(c2ccccc2)CC1,·,1.1
CCOc1ccc(NC(=O)COc2ncnc3ccccc23)cc1,·,-0.2
C/C(=N/NC(=O)c1ccoc1C)c1ccc(NC(=O)c2ccco2)cc1,0.17,-2.2
COC(=O)c1sccc1NC(=O)c1nc(-c2ccc(Cl)cc2)n2c1CCCCC2,2.2,0.2
CONC(=O)Nc1ccc(C)cc1,-1.7,1.1
Cn1cccc1/C=C/C(=O)OCC(=O)c1ccc(Cl)s1,·,-7.3
Cc1cc(=O)oc2cc(OCC(=O)N3CCCC3)c(Cl)cc12,·,0.9
Cc1ccsc1CN1CCN(Cc2ccccc2)CC1,-0.89,0.8
O=S(=O)(CCN1CCOCC1)c1ccc(OC(F)(F)F)cc1,·,1.6
CNC(=S)NNc1nc(N2CCOCC2)nc(N2CCOCC2)n1,0.44,3.5
Cc1cccc2cc(C(c3nnnn3Cc3ccccc3)N3CCN(C(=O)c4ccco4)CC3)c(=O)[nH]c12 (stereo not given),1.2,-0.8
Cc1ccnc(NS(=O)(=O)c2ccccc2)n1,-0.34,2.0
Cc1ccc(CS(=O)Cc2ccc(C(=O)N3CCC(C(N)=O)CC3)o2)cc1 (stereo not given),-0.38,-0.8
CCn1cc(Br)c(C(=O)N2CCN(c3ccccc3)CC2)n1,1.7,0.2
O=C(CSc1nnc(-c2ccco2)o1)c1cc2c3c(c1)CC(=O)N3CCC2,·,-3.9
CSc1ncc(Cl)c(C(=O)Oc2ccccc2F)n1,0.9,3.1
CCc1cc2c(=O)c(Oc3ccc(F)cc3)coc2c(CN(C)C)c1O,·,-0.6
O=C(Nc1cc(C(F)(F)F)ccc1F)C1CCC1,0.53,-1.4
CNC(=O)NC(=O)C(C)N1CCc2ccccc2C1 (stereo not given),·,-2.0
COc1ccccc1C(=O)OC1OCCOC1OC(=O)c1ccccc1OC (stereo not given),·,1.2
CCCN(CC(=O)Nc1ccc(Cl)cc1Cl)CN1C(=O)NC2(CCCC2)C1=O,·,0.6
C/C(=C/C(=O)O)C(=O)Nc1ccc(C)cc1,0.076,3.7

# The listing continues:
SMILES,KSHV LANA nucl,Ab BasE inh
COc1ccccc1NC(=O)Nc1n[nH]c(-c2ccccc2)n1,·,-2.6
O=C1CCCN1Cc1ncnn1-c1ccccc1,3.3,-3.1
O=C(Nc1cccnc1)c1nn(-c2ccccc2)c(=O)c2ccccc12,·,-0.5
COc1cccc2c1c(NC(=O)c1nccnc1C(=O)O)nn2C,·,-0.5
CCCNC(=O)c1nnc(Cc2cccc(F)c2)o1,0.77,-0.2
CN(C)C(=O)COC(=O)c1c2c(nc3ccccc13)CCCCC2,·,-0.5
CCCCNC(=O)Cn1ncc2c1-c1ccccc1OC2,-1.6,-1.0
O=C1CC(c2ccco2)CC(O)=C1C=NCCN1CCN(C2OC(=O)c3ccccc32)CC1 (stereo not given),0.83,2.6
CC1CCCCN1C(=O)c1cc2c(=O)n3ccccc3nc2s1 (stereo not given),0.052,-1.6
Cc1ccc(-c2cc(-c3nnco3)c3ccccc3n2)cc1,·,2.3
CC(=O)N(c1ccccc1)c1nc(/C=C/C(=O)N(Cc2ccco2)C2CCS(=O)(=O)C2)cs1 (stereo not given),·,2.2
CC1(C)CC(=O)C(C=NCC2CCNCC2)=C(O)C1,0.28,1.7
COC(=O)/C(=C(/O)CSc1n[nH]c(=O)[nH]c1=O)c1nc2ccccc2[nH]1,·,-0.5
CCn1c(C)nc2cc(-c3nnc4n3CCCCC4)ccc21,·,-1.6
COC(=O)c1c(NC(=O)c2ccoc2C)sc2c1CCC(C)C2 (stereo not given),0.061,1.9
CC(C)N(C(=O)CSc1nnc(-c2cccs2)o1)C(C)C,-0.037,-1.3
COc1cccc(-c2nc(N)nc(SC)c2C#N)c1,·,-3.7
CC(C)NC(=O)C1CCN(C(=O)C(C(=O)c2ccccc2)n2cc(Cl)ccc2=O)CC1 (stereo not given),-0.72,-0.7
CSc1sc(C(=O)Sc2ccccc2)c2c1S(=O)(=O)N(C)c1ccccc1-2,·,2.9
O=C(c1ccc(Br)cc1)N1CCN(c2ccc(N3CCCCC3)nn2)CC1,-0.29,0.2
Cc1cc(C)[nH]c(=S)n1,·,0.3
Cc1cc2nc(COc3ccccc3)cc(=O)n2o1,-0.38,1.5
COC(=O)c1ccc2c(=O)n(CC(C)O)c(SCc3cc(Cl)c4c(c3)OCCO4)nc2c1 (stereo not given),·,0.9
COc1ccccc1CC(=O)NCC(c1ccco1)N1CCCCC1 (stereo not given),·,0.9
Cc1ccc(-c2nn(-c3ccccc3)cc2/C=C2\SC(=S)N(CCCC(=O)O)C2=O)cc1,·,1.1

# Quoted from the listing.
# Cc1ccc(-c2nn(-c3ccccc3)cc2/C=C2\SC(=S)N(CCCC(=O)O)C2=O)cc1 – Ab BasE inh: 1.1
# COc1cccc2c1c(NC(=O)c1nccnc1C(=O)O)nn2C – Ab BasE inh: -0.5

# More records:
SMILES,KSHV LANA nucl,Ab BasE inh
O=C(CN1CCN(c2ccccc2Cl)CC1)NCC(F)(F)F,·,3.9
Cc1ccccc1Nc1nc(N)nc(CNCCCN2CCCCCC2=O)n1,·,-0.2
COc1cccc(C2C(C(=O)Nc3ccccc3)=C(C)N=C3SCC(=O)N32)c1 (stereo not given),-1.2,0.4
C=CC(=O)Nc1ccc(OC(F)(F)F)cc1,·,1.7
CNCc1ccccc1OC,·,-1.4
CCOC(=O)c1cc2c(ccn2C)n1Cc1ccc(OC(F)(F)F)cc1,0.58,-3.8
CC1=Nc2ccc(N)cc2C1(C)C,0.95,4.9
Cc1occc1-c1nnc(SC(C)c2nc3sc4c(c3c(=O)[nH]2)CCC(C)C4)n1N (stereo not given),·,1.5
CC(C)(C)Cc1cc(N)on1,·,-0.3
CCCC1CCC(c2ccc(C#N)c(=O)[nH]2)CC1 (stereo not given),0.037,-1.8
COC(=O)c1ccccc1S(=O)(=O)Nc1cc(Cl)ccc1C,·,2.2
CN(Cc1ccc(-c2ccc(Cl)cc2)o1)C(C(=O)NC(N)=O)c1ccccc1 (stereo not given),·,-0.3
CC1CCC(CC(=O)O)(CC(=O)O)CC1,0.54,1.6
CCOc1cc(CNc2ccc(NC(=O)CC)cc2)ccc1OCc1cccs1,·,1.7
CCn1cc(NC(=S)Nc2cc(Cl)ccc2OC)c(C(N)=O)n1,1.5,-1.7
Cc1cc(OCCNCCN)cc(C(C)C)c1,0.25,-0.6
CCn1c(O)c(/C(C)=N/c2ccnn2C2CCCCC2)c(=O)n(CC)c1=S,·,3.1
O=C1CCC(C(=O)OCn2nnc3ccccc3c2=O)=NN1,·,0.4
Cc1cc(S(=O)(=O)N2CCCN(c3nc4ccc(Cl)cc4s3)CC2)c(C)cc1Cl,·,1.7
CCc1ccc(N2C(=O)N(CC(=O)N(CC)CC)C3CS(=O)(=O)CC32)cc1 (stereo not given),1.1,-0.2
S=C(NCc1ccncc1)NCc1ccco1,-0.22,2.8
NCCCCN1CCCCC1,-0.26,-1.6
COc1ccc(NC(=O)c2ccc3c(c2)OCCO3)cc1,·,1.9
N#Cc1cnn2c(N)c(-c3ccccc3)cnc12,-0.24,·
c1ccc2c(C3=NNC(=NC4CCCCC4)SC3)c[nH]c2c1,·,-4.4

# Other structures follow:
SMILES,KSHV LANA nucl,Ab BasE inh
COC(=O)c1ccccc1-c1ccc(/C=C2\C(=O)N(C)C(=O)C(C#N)=C2C)o1,·,3.7
O=C(Cc1cccs1)Nc1cc(C(=O)O)cc(C(=O)O)c1,·,1.2
COc1ccc(S(=O)(=O)N2CCCC2c2cccs2)cc1 (stereo not given),2.2,·
CCn1c(CNC(=O)COc2c(C)cccc2C)nnc1SCC(=O)Nc1ccc(OC)cc1,0.83,-2.1
O=C([C@@H]1CCCN1C(=O)c1cccs1)N1CCN(Cc2ccc3c(c2)OCO3)CC1,·,-1.4
CCN(CC)CC(=O)c1c[nH]c2ccccc12,0.32,-0.3
CCCCc1ccc(NC(=O)OC)cc1,0.29,-2.5
O=C(CSC1=NS(=O)(=O)c2ccccc2N1)Nc1ccccc1,0.53,1.6
CCc1nc2sc(C(c3ccccc3)N3CCCCC3)c(O)n2n1 (stereo not given),1.4,-4.2
CCCn1ccnc1SCC(=O)NC(=O)NC12CC3CC(CC(C3)C1)C2,·,1.8
CC(C)CCNC(=O)c1ccc(-n2ccc3ccccc32)s1,0.53,-0.6
O=C(NC1CCCCC1)NC1C2CC3CC(C2)CC1C3 (stereo not given),-0.12,0.8
CCOC(=O)/C(=N\Nc1ccc(Br)cc1)N1CC(C)OC(C)C1 (stereo not given),·,3.7
COc1cccc(C(=O)Nc2ccc(S(=O)(=O)Nc3nccc(C)n3)cc2)c1,·,0.5
Cc1cc2c(cc1C)NC(=O)c1ccccc1C(c1ccccc1)=N2,·,0.2
COC(=O)c1cc(S(=O)(=O)N(C)Cc2ccccc2)cn1C,0.18,1.4
Cn1c(=O)c2c(nc(Sc3nc4ccccc4n3CC(=O)N3CCCCC3)n2C)n(C)c1=O,3.1,-2.7
CN1CCC(N(Cc2ccc3c(c2)OCO3)C(=O)c2cn(Cc3ccccc3)c3ccsc23)CC1,2,-3.3
COc1ccc(Oc2coc3cc(OC(=O)c4ccco4)ccc3c2=O)cc1,0.11,-0.3
CNC(=O)C1CC(=O)N(c2ccc(OC)cc2)C1 (stereo not given),-0.2,0.6
Brc1ccc(CNc2ccc(-c3nc4ncccc4o3)cc2)cc1,-0.002,-2.2
CC1=CC(C)(C)N2C(=O)C3(N=C(N)NC(Nc4ccccc4)=N3)c3cc(C)cc1c32 (stereo not given),-0.51,-0.6
C=CCn1cnnc1SCC1CCCCC1,·,-1.5
COC(=O)NC1CCCCC1NC(=O)OC (stereo not given),-0.096,2.5
Cc1csc(SCC(=O)NC(C)c2ccccc2)n1 (stereo not given),·,-1.9
NC1=C(C(=O)NC2CC2)C(=NC2CCCCC2)SC1C(=O)Nc1cc(Cl)ccc1Cl (stereo not given),·,-0.5
C=CCNC(=S)Nc1sc2c(c1C#N)CCCC2,·,1.5

# One compound at a time, from the list above:
# O=C(NC1CCCCC1)NC1C2CC3CC(C2)CC1C3 (stereo not given) in the list: KSHV LANA nucl = -0.12; Ab BasE inh = 0.8
# COC(=O)NC1CCCCC1NC(=O)OC (stereo not given) in the list: KSHV LANA nucl = -0.096; Ab BasE inh = 2.5

# Looked up by structure from above (two):
SMILES,KSHV LANA nucl,Ab BasE inh
COC(=O)NC1CCCCC1NC(=O)OC (stereo not given),-0.096,2.5
COC(=O)c1ccccc1-c1ccc(/C=C2\C(=O)N(C)C(=O)C(C#N)=C2C)o1,·,3.7

# Molecules from the list above containing a tert-butyl group, in the order listed:
SMILES,KSHV LANA nucl,Ab BasE inh
CC(C)(C)c1cc2ncnc(NC3CCN(Cc4ccccc4)CC3)c2s1,·,-1.6
CC(C)(C)Cc1cc(N)on1,·,-0.3

# High-throughput results deposited in PubChem by ICCB-Longwood Screening Facility, Harvard Medical School.

# Only part of the results is shown; rates above refer to the full screens.
